Screens as filed in PubChem.
AF4-AF9 inh: blocks AF4 peptide binding to human AF9 | 350,000 compounds, 0.47% hits | AID 651704 | inhibition, % at 10 µM | P42568 | AlphaScreen, biotin-AF4 peptide binding to FLAG-AF9;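 active means every replicate reaching a set inhibition limit, whatever the replicate mean, cut at about 25% in these data; inconclusive means mean inhibition reaches that limit but some replicates miss it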;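 further: 0% = plate neutral control median and 100% = total signal loss; the record names both 10 and 1 µM as test concentration; the first replicate is given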
Target sequence (P42568 whole entry, looked up): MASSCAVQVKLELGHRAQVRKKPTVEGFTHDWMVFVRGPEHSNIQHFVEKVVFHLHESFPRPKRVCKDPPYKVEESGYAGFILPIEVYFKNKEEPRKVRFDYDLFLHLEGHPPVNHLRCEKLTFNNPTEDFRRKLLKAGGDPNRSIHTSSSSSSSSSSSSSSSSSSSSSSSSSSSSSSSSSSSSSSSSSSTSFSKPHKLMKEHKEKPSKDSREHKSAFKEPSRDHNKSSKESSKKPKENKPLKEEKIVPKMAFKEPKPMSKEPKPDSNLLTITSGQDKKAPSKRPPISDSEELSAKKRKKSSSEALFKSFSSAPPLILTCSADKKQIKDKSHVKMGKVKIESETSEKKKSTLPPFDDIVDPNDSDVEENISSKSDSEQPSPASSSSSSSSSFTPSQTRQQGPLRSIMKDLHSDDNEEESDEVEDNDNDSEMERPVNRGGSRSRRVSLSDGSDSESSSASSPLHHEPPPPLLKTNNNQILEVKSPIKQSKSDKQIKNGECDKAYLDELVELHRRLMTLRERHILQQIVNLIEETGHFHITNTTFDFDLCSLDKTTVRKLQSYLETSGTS
T cruzi repl: T. cruzi replication inhibition | inhibition, % (no concentration beside the values) | T. cruzi beta-gal in NIH3T3, luminescence, 90 h | 300,000 compounds, 1.4% hits;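 active means mean inhibition across valid replicates above about 55%, limit read from the data; inconclusive means mean below that limit but half or more replicates reach it; inactive means mean below it, under half of replicates reach it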;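 further: signal also drops with host cell toxicity which is not excluded here; 0% = plate median of DMSO wells and 100% = zero luminescence signal; higher percent means less beta-gal luminescence so fewer parasites; stock transfer was 50 nL into about 50 µL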
FGF22 binding: binders of recombinant human FGF22 by thermal shift | Q9HCT0 | SYPRO orange fluorescence; percent of sucrose octasulfate shift, DMSO zero | calls only at 9.99 µM | 340,000 compounds, 1.5% hits | AID 651658;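 active means melting point raised past a set limit in the mean and every replicate; inconclusive means no clear call; three in four hits are not shown here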
Target sequence (Q9HCT0 whole entry, looked up): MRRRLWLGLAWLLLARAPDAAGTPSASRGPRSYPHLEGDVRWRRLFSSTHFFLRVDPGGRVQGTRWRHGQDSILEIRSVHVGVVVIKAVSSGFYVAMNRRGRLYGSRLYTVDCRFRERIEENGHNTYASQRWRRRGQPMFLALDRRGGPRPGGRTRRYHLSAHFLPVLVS
ALR inh: human ALR oxidase inhibition via reduced H2O2. inhibition, % (concentration not given with the values). 290,000 compounds, 3.8% hits. purified ALR, DTT oxidation, H2O2 HRP-luminol luminescence. P55789. AID 485317;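 active means mean and each replicate at 75% or more; inconclusive means only one of the two met; inactive means neither met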;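 further: stock transfer was 7.5 nL into about 7.5 µL; 0% = neutral wells and 100% = wells with inactivated enzyme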
Target sequence (P55789 whole entry, looked up): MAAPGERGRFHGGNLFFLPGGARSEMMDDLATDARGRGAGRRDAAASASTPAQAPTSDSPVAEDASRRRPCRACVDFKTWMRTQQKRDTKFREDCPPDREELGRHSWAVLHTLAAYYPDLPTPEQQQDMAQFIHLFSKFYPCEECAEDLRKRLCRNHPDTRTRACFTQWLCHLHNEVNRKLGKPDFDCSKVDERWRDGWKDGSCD
Beta apoptosis: beta cell apoptosis inhibition. 300,000 compounds, 0.8% hits. protection from apoptosis, % (test concentration not listed). INS-1E cytokine-induced death, ATP luminescence, 48 h; percent of positive-control rescue, neutral wells zero;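 active means all replicates at 75% or more, or half of them and the mean; inconclusive means half reach 75% but not the mean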;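 further: 0% = cytokine-treated negative control wells and 100% = positive control rescue; higher means more ATP so stronger rescue from cytokine killing; wells of about 40 µL received 100 nL stock; the first replicate is given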
Calb FLC: affects C. albicans growth with fluconazole; C. albicans CaCi-2 (fluconazole-resistant clinical isolate) + fluconazole, Alamar Blue growth, 48 h; growth inhibition, % (test concentration not listed); 300,000 compounds, 0.57% hits; AID 1979;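 active means most replicates above 75%; inconclusive means exactly half above 75%; inactive means most below 75%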;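 further: all wells also contain fluconazole at 8 µg/ml as a sub-toxic cotreatment; 0% = median of DMSO wells and 100% = median of geldanamycin control wells; wells of about 8 µL received 7.5 nL stock; the first replicate is given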
rRNA inh HTS: inhibits bacterial ribosomal RNA function over humanized ribosomes. E. coli WT GFP vs humanized-ribosome RFP mutants, fluorescence, 24 h; stronger effect = lower value; DMSO median 0, no signal -100. GFP signal change (wild-type ribosome), % (no concentration beside the values). 350,000 compounds, 1.6% hits. AID 720706;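 active means significant combined selectivity score with lowered wild-type GFP, culture density cut under 30%, mutant RFP and density less affected; inactive means any of these conditions unmet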; further: one replicate is shown; some compounds called inactive have numbers as strong as hits
RanGTP-Imp inh: disruptors of Ran-importin-beta complex formation – biochemical, FRET, CFP-Ran, YFP-importin-beta, homogeneous, primary screen | AID 2216 | inhibition, % (test concentration not listed) | cell-free CFP-Ran/YFP-importin-beta FRET ratio | 300,000 compounds, 1.1% hits;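 active means most replicates above 15%; inconclusive means exactly half above 15%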;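 further: 0% = DMSO wells and 100% = Ran loaded with GDP instead of GTP; wells of about 40 µL received 100 nL stock; the first replicate is given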
rRNA inh HTS OD600: recorded beside rRNA inh HTS, whose call it bears; OD600 change, %; measured here: OD600 growth;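 optical density of the mix in the first replicate; 0 = DMSO median and -100 = no signal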
rRNA inh HTS RFP: recorded beside rRNA inh HTS, whose call it bears; RFP signal change, %; measured here: RFP humanized mutant strains;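 first replicate; 0 = DMSO median and -100 = no signal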
* hit, by the source's call; i = inactive; ? = inconclusive; · = no result given.

SMILES	rRNA inh HTS RFP	AF4-AF9 inh	rRNA inh HTS	rRNA inh HTS OD600	FGF22 binding	Calb FLC	RanGTP-Imp inh	T cruzi repl	ALR inh	Beta apoptosis
CC1CN(c2nc3ccccn3c(=O)c2/C=C(\C#N)C(=O)N2CCOCC2)CC(C)O1 (stereo not drawn)	1.6	0.1	12	-5	i	2	1.1	-24	-8	-1
COc1cc2cc(CCCOC(=O)c3ccco3)oc(=O)c2cc1OC	-7.9	-2.8	-6	0	i	·	·	·	-10	1
Cc1cc(OCC(=O)OCC(=O)Nc2cc(C(F)(F)F)ccc2N2CCOCC2)ccc1Cl	2.0	-2.6	13	4	i	-3	?	-5	-4	-1
COc1ccc(F)cc1C(=O)COC(=O)c1n[nH]c(=O)c2ccccc12	-2.2	1.9	11	13	i	·	·	·	-2	0
CCCCn1c(N)c(N(CCOC)C(=O)c2cc(-c3ccccc3)nc3ccccc23)c(=O)[nH]c1=O	0.2	-0.4	6	-1	·	-3	-2.3	2	·	6
COc1ccc(C(=O)Nc2cccc(/C=C(\CCC(=O)O)c3nc4ccccc4s3)c2)cc1	9.0	-6.7	-19	-8	i	-2	1.0	-2	16	2
CCCNC(=O)c1cccc(COCC(F)(F)F)c1	·	·	·	·	·	-5	5.4	-3	·	-3
Cc1cc(-n2nc(C)cc2C)nc(N)n1	·	·	·	·	·	5	-1.0	-17	0	-4
COc1ccc(C(C)(C)C)cc1NC(=O)c1cncc(Br)c1	·	·	·	·	·	-1	3.9	5	-31	·
O=C(c1ccc(N2CCCC2)c([N+](=O)[O-])c1)N1CCN(CCO)CC1	-3.0	-12	3	0	i	1	2.6	-11	-2	-7
CCN(CC)c1ccc(/C=N/NC(=O)c2cc3ccccc3[nH]2)cc1	3.3	-3.3	-18	-4	i	-4	4.8	-4	·	1
CCCCc1nc2cc(C(=O)NCCc3cnn(C)c3)ccc2o1	-2.0	-0.8	0	1	i	7	1.8	-5	-2	1
COc1ccc(C(C(=O)NC2CCCCC2)N(C(=O)CCl)c2ccc(OC)cc2)cc1 (stereo not drawn)	·	·	·	·	·	-14	1.9	18	-6	-5
COc1cc(NC(=S)N2CCN(Cc3ccccc3)CC2)cc(OC)c1	·	·	·	·	·	-2	-1.2	16	-6	-10
CCCCCCSc1ccc([C@H]2N[C@@](C)(C(=O)OC)[C@H]3C(=O)N(CC)C(=O)[C@@H]23)cc1	4.2	2.0	-24	-40	i	-4	-3.2	17	2	33
O=C(CN1CCN(c2ccc(F)cc2)CC1)Nc1nnc(-c2ccccc2)s1	·	·	·	·	·	2	-0.7	-11	-2	-3
Cc1cccc(NCc2n[nH]c(=S)n2-c2ccccc2)c1	-0.1	-9.7	5	0	i	3	2.8	-2	42	-2
CCn1c(CNC(=O)Cc2ccc(OC)cc2)nnc1SCCOc1ccccc1	·	·	·	·	·	31	11	4	-1	·
Cc1cc(C)c(Cn2cnc3ccccc32)c(C)c1	-15	4.1	-53	-81	i	-5	-1.3	27	-3	5
CCOCCCNC(=O)CN1C(=O)COc2ccc(S(=O)(=O)N3CCCC3)cc21	0.3	-6.6	26	16	i	-2	1.8	-12	-4	-1
COc1ccc(NC(=O)c2cccs2)cc1C(=O)N1CCN(c2ccccc2)CC1	1.9*	-4.0	-21*	-14*	i	-2	-0.1	7	23	4
O=C(CN1CCC(n2nnc3cc(F)ccc32)CC1)Nc1ccccc1N1CCOCC1	·	·	·	·	·	13	1.4	14	4	9
CCC(CC)C(=O)Nc1cc(NC(=O)C(CC)CC)cc(C(=O)O)c1	·	·	·	·	·	-2	-1.2	-3	·	-2
Nc1ccn(CC(=O)NCc2ccc3[nH]ccc3c2)c(=O)n1	-8.0	-1.1	-7	-4	i	·	·	·	5	-2
COc1ccc(S(=O)(=O)NCC2CCC(C(=O)NCCCN3CCCC3=O)CC2)cc1 (stereo not drawn)	-2.4	-6.7	6	8	i	-5	4.1	-3	1	·
COc1ccc(CN=C2NC(=O)CC(C(=O)Nc3ccc(Cl)cc3)S2)cc1 (stereo not drawn)	-1.8	-16	-4	-2	i	21	-0.5	6	-13	-3
Cc1ccc(Nc2nc(=O)c3cc([N+](=O)[O-])ccc3s2)cc1	-2.2	3.4	11	9	i	-6	6.2	-6	-3	1
S=C(c1ccc(-c2cc(Cl)ccc2Cl)o1)N1CCOCC1	·	·	·	·	·	25	?	30	-1	0
O=C(NNS(=O)(=O)c1cccc(Cl)c1)c1cc(-c2ccc(F)cc2)nc2ccccc12	0.4*	-1.3	-19*	2.7*	i	-7	-5.1	-13	0	-3
CC(=O)/C(N=Nc1ccc(C(=O)O)cc1[N+](=O)[O-])=C(\C)O	1.8	-5.1	3	8	i	2	-5.7	-10	7	2

The listing continues:
SMILES	rRNA inh HTS RFP	AF4-AF9 inh	rRNA inh HTS	rRNA inh HTS OD600	FGF22 binding	Calb FLC	RanGTP-Imp inh	T cruzi repl	ALR inh	Beta apoptosis
COc1ccc(C(CNC(=O)/C=C/c2c(Cl)nc3ccccn23)N(C)C)cc1 (stereo not drawn)	0.0	3.3	4	1	i	-7	-0.4	6	-5	-6
CCCc1cc(=O)oc2cc(OCC(=O)NCCc3ccc(S(N)(=O)=O)cc3)ccc12	-1.7	-1.9	2	20	i	14	0.4	5	2	-1
CCCCOC(=O)CSCC(=O)N1N=C(c2cccs2)CC1c1ccc(F)cc1 (stereo not drawn)	4.3	3.0	-12	-3	i	2	-4.1	4	·	-4
CCOC(=O)c1c(C)oc2c1c1c(c3ccccc32)OCN(CCCC(=O)O)C1	5.2	3.1	-8	-16	i	30	-3.7	-34	91*	-14
CCC(CC)C(=O)Nc1c(C(=O)N2CCN(c3ccccc3)CC2)oc2ccccc12	-6.7*	5.5	-30*	-21*	i	17	7.8	-3	6	8
CCCn1nnc(NC(=O)c2ccc(OCC)c(Cl)c2)n1	-3.3	-41	-4	-3	i	-27	-0.6	6	2	-2
COc1cccc(C(C(=O)NC2CCCCC2)N(C(=O)Cc2cccs2)c2ccc(-n3cnnn3)c(OC)c2)c1 (stereo not drawn)	·	·	·	·	·	-6	1.8	29	-1	5
C=C(C)CSc1nnc([C@@H](NC(=O)OC(C)(C)C)C(C)CC)o1 (stereo partly drawn)	·	·	·	·	·	-2	0.8	11	-1	0
CS(=O)(=O)N1CCC(Oc2ccccc2C(=O)NC2CCOC2)CC1 (stereo not drawn)	-0.8	-5.3	9	9	i	5	12	-14	0	-5
CN(C)c1nc(N)nc(-c2ccco2)n1	·	·	·	·	·	2	-1.9	-11	-12	-3
Cc1occc1C(=O)NNC(=O)c1ccccc1Br	·	-0.2	·	·	i	-9	2.4	-21	-6	-6
CCCc1cc(C(=O)N2CCCC(C(=O)c3ccc(Cl)cc3)C2)n(C)n1 (stereo not drawn)	1.6	-2.0	-3	-19	i	-2	7.1	-8	-4	-2
CC(=O)Nc1cccc(NC(=O)C2CC(=O)N(C3CCCCC3)C2)c1 (stereo not drawn)	1.7	-1.4	15	8	i	0	2.4	-2	-3	-4
O=C(Nc1ccc(S(=O)(=O)Nc2nccs2)cc1)C1=NN(c2ccccc2)C(=O)CC1	2.0	15	4	1	i	-4	-1.1	-3	52	2
CCOC(=O)c1c(/N=C/c2ccccc2O)sc2c1CCC2	0.3	0.3	15	9	i	-1	-1.4	6	25	-6
CCCc1cc(=O)[nH]c(SCC(=O)N2CC3(C)CC2CC(C)(C)C3)n1 (stereo not drawn)	1.6	-1.4	6	9	i	·	·	·	-7	2
N=C(N)N=Nc1c(O)[nH]c2ccc(Br)cc12	·	·	·	·	·	-16	1.6	17	·	3
COc1ccc(C(=O)C2CCCCC2=O)cc1 (stereo not drawn)	·	-1.5	·	·	·	-9	3.8	-2	10	-2
CCN(CC)S(=O)(=O)c1cccc(C(=O)Nc2ccccc2)c1	·	·	·	·	·	-5	-0.5	-4	4	0
Cc1sc2ncnc(N3CCN(CCOc4ccc(Cl)cc4)CC3)c2c1C	-24	2.1	-53	-70	i	?	-1.4	59*	-39	103*
COc1ccc(CCNc2cc(C)[nH]c(=O)c2)cc1OC	0.1	7.0	5	8	i	-3	5.8	-20	-5	2
O=C1CN(C(=O)c2ccc(Br)o2)C(c2ccccc2)c2cc(Br)ccc2N1 (stereo not drawn)	7.3	9.7	-14	-21	i	14	-2.8	14	·	6
CCOc1ccc(CC(=O)N/N=C/c2cccnc2)cc1	4.7	1.1	-4	1	i	-13	-2.1	·	-8	0
O=C(OCC(=O)N1CCc2ccccc21)c1cccnc1Cl	-3.3	0.0	6	1	i	7	4.4	-7	-3	-2
CN(C)c1ccc(N2C(=NC(=O)c3ccccc3)SC3CS(=O)(=O)CC32)cc1 (stereo not drawn)	-2.1	0.9	2	-1	i	-2	2.3	10	43	-6
Cc1ccc(NC(=O)c2ccc(CSc3nnc(-c4ccncc4)n3C)cc2)c(C)c1	·	·	·	·	·	-2	1.9	-8	-9	-2
Cc1cc(C)c2c(C)[nH]nc2n1	-0.9	-3.4	5	6	i	2	5.1	-9	-10	162*
COc1cccc(CN2CC(C(=O)NCCN3CCOCC3)CCC2=O)c1 (stereo not drawn)	-0.7	0.5	7	15	i	-1	-2.0	4	-1	-4
O=C(C[C@H]1C/C=C\CCCC(=O)OC[C@H]2CCCN2C1=O)NCCO	-0.1	-0.9	-8	-8	i	·	·	·	2	-7

Not all compounds are listed; the hit share may differ from the screen's.
